TRPML1 inh: qHTS for Inhibitors of the Human Mucolipin Transient Receptor Potential 1 (TRPML1) | Mucolipin-1 (Homo sapiens), Q9GZU1 | TRPML1-inducible cells, Ca2+ dye fluorescence, FDSS; stronger effect = lower value; inhibition of EC80 agonist-evoked calcium signal | activity change, negative = inhibition, % (test concentration not listed) | 390,000 compounds, 0.02% hits; in the data active means activity change below about -50%; inconclusive means about -30% to -50%; inactive means above about -30%;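 also: stimulus is agonist 54-4 at its EC80 concentration; % is scaled to controls: 0 for no effect and ±100 for the full control effect; compound concentration not given in the record; the text of the record puts the active cut at -80%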
Target sequence (Q9GZU1 whole entry, looked up): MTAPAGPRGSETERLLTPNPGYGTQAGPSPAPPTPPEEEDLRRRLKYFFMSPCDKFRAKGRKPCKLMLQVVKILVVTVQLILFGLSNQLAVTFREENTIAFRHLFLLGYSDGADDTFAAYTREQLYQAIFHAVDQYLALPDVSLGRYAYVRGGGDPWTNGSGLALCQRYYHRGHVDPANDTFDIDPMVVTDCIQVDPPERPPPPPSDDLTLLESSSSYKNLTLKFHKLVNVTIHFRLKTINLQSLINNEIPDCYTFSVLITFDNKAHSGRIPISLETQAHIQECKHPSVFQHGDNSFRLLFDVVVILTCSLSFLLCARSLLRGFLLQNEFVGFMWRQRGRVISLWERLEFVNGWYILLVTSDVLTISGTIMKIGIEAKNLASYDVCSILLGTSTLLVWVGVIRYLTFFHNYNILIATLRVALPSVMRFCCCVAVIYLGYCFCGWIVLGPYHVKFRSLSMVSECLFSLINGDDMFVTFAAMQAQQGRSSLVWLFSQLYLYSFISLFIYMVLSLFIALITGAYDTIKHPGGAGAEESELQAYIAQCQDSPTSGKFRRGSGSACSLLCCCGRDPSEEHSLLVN
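TRPML1-DL cells, Tet-induced overnight (~16 h, 37 °C) at 1,500 cells/well, were loaded with Ca8 no-wash dye plus quencher for 45-90 min at room temperature. Compounds were pinned during FDSS kinetic reading; agonist 54-4 at EC80 (4 uM final) then added.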
Six1-Eya2 inh: qHTS Assay for Inhibitors of the Six1/Eya2 Interaction | Homeobox protein SIX1 (Homo sapiens) + Protein phosphatase EYA2 (Homo sapiens), … | AlphaScreen GST-Six1/His-Eya2 binding, biochemical; stronger effect = lower value; control for the full effect not named in the record | activity change, % (concentration not given with the values) | 360,000 compounds, 0.56% hits; in the data active = activity change below about -65%; inconclusive = about -30% to -65%; inactive = above about -30%; also: % is scaled to controls: 0 for no effect and ±100 for the full control effect
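AlphaScreen luminescence read after one hour at 37 °C in darkness. Pin-transferred compounds met GST-Six1 and His-Eya2 protein (5X stock 250 nM/500 nM) plus glutathione donor and Ni-chelate acceptor beads (5X, 50 ug/mL).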
TRPML1 ag: qHTS for Agonists of the Human Mucolipin Transient Receptor Potential 1 (TRPML1); TRPML1-expressing cells, Ca2+ dye fluorescence, FDSS; host cell line not named in the record; reference of the full effect not given here; activation, % (test concentration not listed); 410,000 compounds, 0.12% hits; AID 624414, 2012; in the data active = activation above about 50%; inconclusive = about 30% to 50%; inactive = below about 30%; also: 0% is about no effect; the text of the record puts the active cut at 80%
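Cells: TRPML1-DL, 1X Tet inducer, ~16 h at 37 degrees C/5% CO2. Dye: ABD Ca8 no-wash + quencher, 45-90 min RT. Read: 10 s baseline, compound add, 110 s agonist phase; 54-4 EC80 (4uM final), 110 s antagonist phase.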
PINK1 modulator: A Quantitative High throughput Screen to Identify Chemical Modulators of PINK1 Expression; PINK1 immunofluorescence, high-content cytometry, 24 h; Potency, µM (top dose mostly 76.6 µM), for the others: at the highest dose activation (PINK1 increase), most hits filed as activators; 410,000 compounds, 0.2% hits; AID 624263, 2012; active = well fitted activation curve with a large enough effect; inconclusive = small, poorly fitted or top-dose-only effect; inactive = flat fitted curve, though single readings scatter; cell line not stated here;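 also: potency is read from the fitted curve at half-maximal effect; % of control where 0% means no effect; nearly all actives have a fitted effect of over 65% in size; a mitochondrial uncoupler was the plate control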
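Compound titrations (5 concentrations, 24 h) on a stable cell line; DMSO and CCCP controls. Endpoint: fixed-cell PINK1 immunofluorescence with mitochondrial, cell and nuclear markers, scanned by microplate cytometer.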
D2 potentiator: Beta-Arrestin HTS for Positive Allosteric Modulators of the Human D2 Dopamine Receptor: Potentiators. D(2) dopamine receptor (Homo sapiens), P14416. DiscoveRx D2 beta-arrestin cells, luminescence, 90 min; 100% = 57 uM dopamine signal. potentiation, % (concentration not given with the values). 360,000 compounds, 0.23% hits; active = potentiation of 50% or more; inconclusive = 30% to 50%; inactive = 30% or less;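 also: tested on top of an EC20 dose of dopamine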
Target sequence (P14416 whole entry, looked up): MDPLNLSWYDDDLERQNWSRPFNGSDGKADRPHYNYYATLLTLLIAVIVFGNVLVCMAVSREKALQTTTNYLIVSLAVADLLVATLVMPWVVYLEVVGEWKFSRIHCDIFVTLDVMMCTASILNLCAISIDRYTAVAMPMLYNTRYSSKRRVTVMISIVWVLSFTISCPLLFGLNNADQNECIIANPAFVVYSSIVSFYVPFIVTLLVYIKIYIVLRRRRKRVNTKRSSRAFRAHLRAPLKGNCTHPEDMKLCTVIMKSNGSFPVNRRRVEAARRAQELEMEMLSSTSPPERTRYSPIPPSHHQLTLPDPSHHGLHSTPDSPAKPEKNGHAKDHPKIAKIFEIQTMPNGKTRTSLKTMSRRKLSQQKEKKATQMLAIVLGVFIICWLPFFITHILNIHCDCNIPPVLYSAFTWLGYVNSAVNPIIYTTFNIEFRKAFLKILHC
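PathHunter D2 cells, attached overnight at 37 deg C, received compound in DMSO plus dopamine at EC20 (50 nM final) for 90 min at 37 deg C. Beta-arrestin recruitment was read as luminescence after 1 h with detection reagent at ambient temperature.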
D2 agonist: Beta-Arrestin HTS for Positive Allosteric Modulators of the Human D2 Dopamine Receptor: Agonists | DiscoveRx PathHunter D2 beta-arrestin, luminescence, 90 min; 100% = 57 uM dopamine signal | D(2) dopamine receptor (Homo sapiens), P14416 | 360,000 compounds, 0.084% hits | activation, % (test concentration not listed); in the data active = activation above about 40%; inconclusive = about 15% to 40%; inactive = below about 15%; also: compound concentration not given in the record; the text of the record calls up to 30% inactive
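DiscoveRx PathHunter D2 beta-arrestin cells (2,100/well) attached overnight, then compound-stimulated 90 min at 37 C in HBSS/10 mM HEPES/0.1% Tween-20 buffer; beta-galactosidase complementation read by luminescence after 1 h at ambient temperature. Dopamine 57 uM final (EC100) as control.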
The depositor's hits bear a star; ? = inconclusive; · = not tested or not shown; [ ] = dose if it differs, or a comment.

Compound,TRPML1 inh,Six1-Eya2 inh,TRPML1 ag,PINK1 modulator,D2 potentiator,D2 agonist
CCOc1ccc(N(C)S(=O)(=O)c2ccc(C)c(C(=O)NCCc3ccc(OC)cc3)c2)cc1,21,-2,1.7,0.5%,-4,-6.4
COc1ccc(C(=S)N2CCCCCC2)cc1,-9,-5,-0.1,-1.7%,-5,-7.0
O=S(=O)(NCc1ccc(Cl)cc1)c1cccc2cccnc12,-4,3,0.6,-0.8%,-16,-3.8
CN1CCN(CC(=O)N2c3ccccc3C(C)(c3ccc(Cl)cc3)CC2(C)C)CC1 (stereo unspecified),43,-1,0.7,-2.6%,-39,-0.3
COc1cccc(N2CCN(C(=O)c3ccc(-c4ccccc4)cc3)CC2)c1,-1,-19,0.4,1.7%,-5,0.9
COc1cc(Nc2ncc3c(n2)CCN(Cc2cccc(C)c2)C3)cc(OC)c1,21,·,2.7,0.8%,·,·
Cc1nc(S(=O)(=O)c2ccc(Br)cc2)nc2c1CCC2,24,-2,1.0,-0.6%,-3,0.3
CN(CC(=O)Nc1ccncc1)S(=O)(=O)c1ccccc1,-18,0,-0.2,1.7%,-8,0.5
CC12CC(NC(=O)N1c1cccc(C(=O)NCc3ccc4c(c3)OCO4)c1)c1cc(Cl)ccc1O2 (stereo unspecified),-26,-5,0.1,-0.9%,-5,-3.9
CCOC(=O)c1c(C)c(C(=O)Nc2ccc3c(c2)OCCO3)c(C)n1C,14,-6,0.9,10.0%[38.3 µM],-10,-2.1
Cc1onc(-c2ccccc2Cl)c1C(=O)Nc1nc2ccc(S(C)(=O)=O)cc2s1,-18,2,3.9,-1.7%,-22,-2.6
CCC(=O)N1c2ccccc2CC1C(=O)NCc1cc(OC)ccc1OC (stereo unspecified),2,·,0.4,0.9%,·,·
O=C(CSc1ncn[nH]1)Nc1ccccc1Sc1ccccc1,26,2,3.0,-4.9%[38.3 µM],1,1.1
CCOC(=O)c1cnn(-c2ccccc2)c1NC(=O)CN1CCOCC1,1,3,3.0,-0.8%,-4,-4.7
O=C(CN1C(=O)CCSc2ccc(S(=O)(=O)N3CCCC3)cc21)Nc1cccc(Cl)c1,21,·,-0.3,0.6%,·,·
CCCCNC(=O)CN1C(=O)c2cccc(N)c2C1=O,9,2,5.9,0.1%,4,0.7
CC1(C)O[C@@H]2C[C@H]3[C@@H]4CCC5=CC(=O)C=C[C@]5(C)[C@@]4(F)[C@@H](O)C[C@]3(C)[C@]2(C(=O)CO)O1,31,1,0.4,5.6%,6,7.5
CCNc1nc(-c2cc3ccccc3o2)cs1,2,-1,0.3,6.9%,-12,-9.0
CCOC(=O)C(O)(CC(=O)c1ccc(OC)cc1)C(F)(F)F (stereo unspecified),-11,2,-1.2,4.7%,-6,-3.2
Cc1ccc(C)c(NC(=O)CCN2CCCCC2)c1,10,1,0.1,0.5%,-10,-6.0
Clc1cc2nc(-c3cccnc3Cl)[nH]c2cc1Cl,-22,-3,-0.3,28%,-4,?
Cc1ccc(NC(=O)CSc2nnc(-c3ccoc3C)n2CCCN(C)C)cc1Cl,9,-2,0.4,-1.1%,-23,-0.1
Clc1cccc(Cl)c1CSc1nnc2ccccn12,6,-5,-0.4,-1.4%,-5,-2.8
COC(=O)c1cn(NC(=O)c2ccncc2)c(=O)c2ccccc12,-4,3,0.2,-0.1%,-5,-1.6
COc1ccc(OC)c(C2SCCN2S(=O)(=O)c2cccc(C(F)(F)F)c2)c1 (stereo unspecified),12,-2,4.6,?,-3,1.5
Cn1nnc(NCc2cc(Br)ccc2OCc2cccs2)n1,-4,0,0.5,·,-8,-1.9
CCC(=O)NC(=S)Nc1ccc(NC(=O)c2ccc([N+](=O)[O-])cc2)cc1,-9,-3,0.2,11%,-25,2.6
O=C(Nc1cccnc1Cl)c1cc2c(s1)-c1ccccc1OC2,7,17,-0.4,10%,-16,1.9
Cc1nnc(NC(=O)CSc2nnc(CC(=O)Nc3ccccc3F)n2C)s1,-9,-1,0.0,3.1%,-2,-2.2
CC(C)CC1C(=O)N(Cc2cn(CCC3OCCO3)nn2)CCS(=O)(=O)N1Cc1ccc(-c2ccc(F)nc2)cc1 (stereo unspecified),-10,18,-0.3,6.7%,7,7.5

Reprinted at random: 2 entries already listed.
Compound,TRPML1 inh,Six1-Eya2 inh,TRPML1 ag,PINK1 modulator,D2 potentiator,D2 agonist
CCC(=O)NC(=S)Nc1ccc(NC(=O)c2ccc([N+](=O)[O-])cc2)cc1,-9,-3,0.2,11%,-25,2.6
CC(C)CC1C(=O)N(Cc2cn(CCC3OCCO3)nn2)CCS(=O)(=O)N1Cc1ccc(-c2ccc(F)nc2)cc1 (stereo unspecified),-10,18,-0.3,6.7%,7,7.5

More compounds follow.
Compound,TRPML1 inh,Six1-Eya2 inh,TRPML1 ag,PINK1 modulator,D2 potentiator,D2 agonist
CSc1nnc(C)c(=O)n1COC(=O)c1cc(Cl)ccc1[N+](=O)[O-],-6,-3,-1.0,3.0%,10,0.1
CCCCSc1cnn(-c2ccccc2)c(=O)c1SCCCC,-11,51,1.6,0.3%[38.3 µM],-2,-3.9
COC(=O)/C=C1\C(=O)N(c2nc3ccccc3s2)C(=S)N1c1ccc(F)cc1,-6,0,1.6,?,-5,-1.9
CC(=O)c1ccc(Cl)c(Cl)c1Cl,21,4,-0.7,0.0%,-3,-1.1
O=C(COc1ccccc1[N+](=O)[O-])Nc1ccc2oc(=O)ccc2c1,-1,-5,-0.3,0.7%,-3,-3.9
CCC(C)[C@H](NC(=O)Nc1ccc2c(c1)OCCO2)C(=O)O (stereo partly specified),15,4,-0.7,·,-20,-1.8
COc1ccc(Cn2c(=O)n(-c3ccccc3C)c(=O)c3c4c(sc32)CN(C(C)=O)CC4)cc1,-24,·,-0.7,0.9%,·,·
COc1cccc(-n2nnc3c(=O)n(CC(=O)N4CCC(C)CC4)cnc32)c1,-14,0,-0.2,2.4%[38.3 µM],-6,0.6
CCN(CC)C(=O)CSc1nc(C)cc(-c2cccs2)c1C#N,-6,-2,1.2,-2.4%[38.3 µM],-8,-0.3
CC(=O)c1cc(F)c(N2CCN(C(=O)COc3ccccc3F)CC2)cc1C,-17,21,0.4,-1.5%,-1,-1.8
CCCCc1cc(=O)oc2cc(C)c(CN3CCCC3)c(O)c12,-5,-17,0.1,6.3%[38.3 µM],6,-0.2
CCc1ccc(CN(Cc2ccco2)C(=O)c2cc(-c3ccc(C)c(F)c3)on2)cc1,7,·,2.7,0.0%,·,·
Cc1ccc(-n2nc3c(c2NC(=O)c2ccc4c(c2)OCO4)CS(=O)(=O)C3)c(C)c1,-18,26,-0.7,-1.0%,-9,2.1
O=C(NCc1cccc(F)c1)C1CCCN(C(=O)N2CCOc3ccccc32)C1 (stereo unspecified),1,·,-0.5,0.0%,·,·
Cc1ccc(OCC(=O)Nc2ccc(N3CCN(S(C)(=O)=O)CC3)cc2)cc1C,17,1,-0.7,3.6%,-6,-0.8
Cc1ccc2c(c1C)NC(=O)CC(c1ccccc1O)=N2,-9,-2,0.3,1.1%,-4,-4.5
CN(C)S(=O)(=O)c1ccc2c(c1)nc(CCC(=O)NCc1ccc(Cl)cc1)n2C,-3,-1,0.4,4.5%,-8,-5.8
CCOC(=O)[C@H]1[C@H]2COc3cc(OC)ccc3[C@@H]2N2C(=O)c3cc(OC)ccc3NC(=O)[C@@]12C,36,2,-0.2,0.2%,3,-1.5
Cc1noc(C)c1S(=O)(=O)NC(=O)C1(C)CCN1C(=O)c1ccc(C2CCCCC2)cc1 (stereo unspecified),·,-1,-0.3,0.8%,-2,2.5
Cc1cccc(C)c1NC(=O)CNC(=O)c1cccc(S(=O)(=O)NCc2cccs2)c1,1,-1,-0.2,3.0%,-3,0.0

Full records, quoted from the list. Order of values: TRPML1 inh	Six1-Eya2 inh	TRPML1 ag	PINK1 modulator	D2 potentiator	D2 agonist
COc1cccc(N2CCN(C(=O)c3ccc(-c4ccccc4)cc3)CC2)c1 is listed with -1	-19	0.4	1.7%	-5	0.9
CC12CC(NC(=O)N1c1cccc(C(=O)NCc3ccc4c(c3)OCO4)c1)c1cc(Cl)ccc1O2 (stereo unspecified) is listed with -26	-5	0.1	-0.9%	-5	-3.9
Cc1ccc(-n2nc3c(c2NC(=O)c2ccc4c(c2)OCO4)CS(=O)(=O)C3)c(C)c1 is listed with -18	26	-0.7	-1.0%	-9	2.1
Cc1ccc(OCC(=O)Nc2ccc(N3CCN(S(C)(=O)=O)CC3)cc2)cc1C is listed with 17	1	-0.7	3.6%	-6	-0.8

Further compounds:
Compound,TRPML1 inh,Six1-Eya2 inh,TRPML1 ag,PINK1 modulator,D2 potentiator,D2 agonist
COc1ccccc1NC(=O)CN(c1ccccc1OC)S(=O)(=O)c1ccccc1,63,-1,1.6,1.5%,-3,-0.6
Cc1ccccc1NCC(=O)N=Nc1c(O)[nH]c2ccc([N+](=O)[O-])cc12,2,-6,1.0,2.4%,-2,0.0
Cc1ccc2occ(CC(=O)Nc3ccc(S(=O)(=O)N4CCC(C)CC4)cc3)c2c1,7,·,1.5,-1.1%,·,·
COc1ccc(-c2cc(C(F)F)n3ncc(C(=O)N4CCCc5ccccc54)c3n2)cc1,5,6,-0.1,?,-7,-3.5
O=C(Nc1ncc(Cc2cccc(Cl)c2Cl)s1)C1CCCO1 (stereo unspecified),-4,-7,0.6,4.0%,-8,2.8
COc1ccc2ccccc2c1CN1CCSCC1,15,-9,-0.1,2.2%,-2,2.0
Cc1[nH]c2ccc(OC(F)(F)F)cc2c1CCN1C(=O)c2ccc(C(=O)O)cc2C1=O,-14,2,0.1,-0.9%,1,0.3

Bioassay records (PubChem BioAssay)
